Vif A3G: inhibitors of Vif binding to APOBEC3G peptide, primary screen, biochemical, TR-FRET, GST-Vif 1-94, biotin-A3G peptide, dose response retest (AID 1117319); 0.57% of 260,000 active; Virion infectivity factor (Human immunodeficiency virus type 1 group M subtype B (isolate …; inhibition, %; hits with a dose series show IC50 in µM; TR-FRET GST-Vif / biotin-A3G peptide binding; higher % means a stronger effect; test concentration not given here; strong numbers were not always called active;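 active means above the screen mean plus three standard deviations and confirmed in dose response; inconclusive means results disagree or hit not tested in dose response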;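 further: Vif residues 1-94 fused to GST binding biotinylated APOBEC3G peptide 110-148; 0% = full assay without inhibitor and 100% = GST in place of GST-Vif; retest series ran down from 100 µM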
B2AR ag: beta2AR agonists driving receptor internalization, primary screen, cell-based, FAP fluorogen, flow cytometry | 0.43% of 340,000 active | response, % (no concentration beside the values) | Am2.2-beta2AR cells; reference of the scale not given here;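 active means response above a set limit, near 3 SD of response in nonfluorescent compounds, cut at about 42% in these data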;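 further: stock transfer was 100 nL into about 11 µL; a reference agonist was the positive control; negative values mostly stem from fluorescent compounds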
Target sequence (P07550 whole entry, looked up): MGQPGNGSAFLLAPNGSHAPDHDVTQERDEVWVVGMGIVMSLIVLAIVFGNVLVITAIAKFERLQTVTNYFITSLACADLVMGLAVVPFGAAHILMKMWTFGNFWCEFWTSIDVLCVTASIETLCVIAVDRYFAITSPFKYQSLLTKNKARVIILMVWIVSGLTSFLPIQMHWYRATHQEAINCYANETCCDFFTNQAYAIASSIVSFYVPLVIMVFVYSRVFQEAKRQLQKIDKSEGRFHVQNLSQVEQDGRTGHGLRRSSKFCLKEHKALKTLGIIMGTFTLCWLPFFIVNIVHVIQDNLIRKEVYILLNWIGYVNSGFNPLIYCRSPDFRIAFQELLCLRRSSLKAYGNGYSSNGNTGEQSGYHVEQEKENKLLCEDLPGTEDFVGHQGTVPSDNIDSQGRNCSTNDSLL
LANA-H2B inh: blockers of LANA interaction with H2A/H2B – biochemical, FP readout, HTS, primary screen; AID 2629, 2010; 0.6% of 320,000 active; Protein LANA1 (Human herpesvirus 8 type P (isolate GK18)), Q9QR71; inhibition, % (test concentration not listed); cell-free LANA-H2A/H2B peptide, fluorescence polarization; in the data active means inhibition mostly above about 10%, no sharp cut-off; inactive means mostly below about 6.7%;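 further: stock transfer was 7.5 nL into about 10 µL; 0% = median of vehicle wells and 100% = median of positive control wells; one replicate is shown; the record names a cut of 25% in any replicate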
HNF4A DNA FP: change in binding of human HNF4A to DNA, primary screen, biochemical, fluorescence polarization, FITC-DNA | Hepatocyte nuclear factor 4-alpha (Homo sapiens), P41235 | 1 h | activity change, % at 10 µM | 0.3% of 360,000 active | AID 1224865, 2016; in the data active means activity change above about 30%, passing the limit was not always enough;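 further: controls were the assay level and a saturating level of protein; the project sought stronger binding though the title names inhibitors; some compounds called inactive have numbers as strong as hits; positive values seem to mean higher polarization but the record does not say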
Target sequence (P41235 whole entry, looked up): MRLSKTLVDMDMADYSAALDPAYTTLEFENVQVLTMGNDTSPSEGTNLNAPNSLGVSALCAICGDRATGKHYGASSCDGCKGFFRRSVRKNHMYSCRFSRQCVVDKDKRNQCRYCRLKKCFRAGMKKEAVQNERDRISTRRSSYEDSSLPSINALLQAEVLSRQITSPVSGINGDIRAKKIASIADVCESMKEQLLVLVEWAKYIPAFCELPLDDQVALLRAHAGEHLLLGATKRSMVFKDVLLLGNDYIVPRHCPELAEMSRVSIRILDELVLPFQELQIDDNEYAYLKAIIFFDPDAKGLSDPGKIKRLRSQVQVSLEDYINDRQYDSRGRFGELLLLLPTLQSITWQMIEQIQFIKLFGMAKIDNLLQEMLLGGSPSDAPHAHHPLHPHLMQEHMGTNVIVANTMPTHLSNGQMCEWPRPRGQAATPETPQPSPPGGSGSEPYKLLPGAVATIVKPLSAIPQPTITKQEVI
RanGTP-Imp inh: inhibitors of RanGTP-importin-beta interaction, primary screen, biochemical, FRET, CFP-Ran, YFP-importin-beta, homogeneous | Ran GTPase (GTP-bound) - importin-beta complex | cell-free CFP-Ran/YFP-importin-beta FRET ratio | inhibition, % (test concentration not listed) | 1.1% of 300,000 active;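 active means most replicates above 15%; inconclusive means exactly half above 15%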;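 further: 0% = DMSO wells and 100% = Ran loaded with GDP instead of GTP; wells of about 40 µL received 100 nL stock; the first replicate is given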
Calb FLC: C. albicans growth inhibition with fluconazole, primary screen, CaCi-2 strain, Alamar Blue fluorescence; growth inhibition, % (no concentration beside the values); C. albicans CaCi-2 (fluconazole-resistant clinical isolate) + fluconazole, 48 h; 0.57% of 300,000 active;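 active means most replicates above 75%; inconclusive means exactly half above 75%; inactive means most below 75%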;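 further: all wells also contain fluconazole at 8 µg/ml as a sub-toxic cotreatment; 0% = median of DMSO wells and 100% = median of geldanamycin control wells; wells of about 8 µL received 7.5 nL stock; the first replicate is given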
ALR H2O2 inh: inhibitors of human ALR sulfhydryl oxidase, primary screen, biochemical, H2O2 detection, HRP-luminol luminescence, single point. purified ALR, DTT oxidation. 3.8% of 290,000 active. AID 485317, 2010. FAD-linked sulfhydryl oxidase ALR (Homo sapiens), P55789. inhibition, % (no concentration beside the values);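 active means mean and each replicate at 75% or more; inconclusive means only one of the two met; inactive means neither met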;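 further: stock transfer was 7.5 nL into about 7.5 µL; 0% = neutral wells and 100% = wells with inactivated enzyme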
Target sequence (P55789 whole entry, looked up): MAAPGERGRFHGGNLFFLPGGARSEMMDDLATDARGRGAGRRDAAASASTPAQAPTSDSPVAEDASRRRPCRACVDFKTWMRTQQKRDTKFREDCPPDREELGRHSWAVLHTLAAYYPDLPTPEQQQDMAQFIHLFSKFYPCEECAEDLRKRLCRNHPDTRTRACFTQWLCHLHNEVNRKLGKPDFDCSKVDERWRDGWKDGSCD
Numbers without * were called inactive; u = inconclusive; x = no result given; & = joins results of further samples.

SMILES	Vif A3G	B2AR ag	LANA-H2B inh	HNF4A DNA FP	RanGTP-Imp inh	Calb FLC	ALR H2O2 inh
CC(C(=O)N1CCc2ccccc21)N1CCc2ccccc2C1 (centres undefined)	-2%	-6	-1.2	-6.9	-1.5	-11	-19
O=C(NCc1ccco1)C1CCN(S(=O)(=O)N2CCOCC2)CC1	-7%	-9	-1.8	3.4	-1.3	2	-6
Cc1cc(-c2ccccc2)nc2oc3c(c12)NC(=O)CN(c1ccccc1)C3=O	x	2	1.8	1.9	2.2	-1	-20
CC(C)Cn1c2c(c(O)c(C(=O)Nc3nc4ccccc4s3)c1=O)CCCC2	-3%	-1	-2.0	-1.3	3.7	0	-3
CCc1[nH]nc2c1C(c1ccc(C)o1)C(C#N)=C(N)O2 (centres undefined)	-3%	9	5.6	1.7	-0.9	9	22
CC(C)CC(C(=O)N1CCOCC1)N1Cc2ccccc2C1=O (centres undefined)	0%	3	12	-0.2	0.5	17	-14
CC(C)(C)S(=O)N1Cc2cc(CO)cc(-c3ccccc3)c2[C@H]1CCO (some centres undefined)	-7%	5	x	10	x	x	x
O=C(CNS(=O)(=O)c1ccc(Br)cc1)N1CCOCC1	-3%	-5	1.3	3.7	1.2	4	-2
Oc1ccc(-c2cn3ccccc3n2)cc1O	x	-7	2.4	-1.6	6.6	1	99*
CCOC(=O)C1=C(C)N(C)C(=S)NC1c1c(OCC)ccc2ccccc12 (centres undefined)	4%	0	2.3	-1.7	3.2	-6	-6
CCc1cc2ccc(OC)cc2nc1SCC(=O)N1CCN(C(=O)c2ccco2)CC1	-11%	-5	-2.6	-2.3	3.5	9	-1
Cc1cc2nc(N)sc2cc1[N+](=O)[O-]	1%	2	0.7	-4.5	-1.5	39	-8

Following part
SMILES	Vif A3G	B2AR ag	LANA-H2B inh	HNF4A DNA FP	RanGTP-Imp inh	Calb FLC	ALR H2O2 inh
CC(C)(C)OC(=O)CNC(=O)c1[nH]cnc1C(=O)NC(c1ccccc1)c1ccccc1	x	13	-1.8	0.0	2.7	8	x
O=C(NCCc1csc(-c2cccnc2)n1)c1ccco1	0%	-15	-0.4	3.0	0.9	5	14
O=C(COC(=O)CCCN1C(=O)c2cccc3cccc(c23)C1=O)Nc1ccc(Cl)cc1	2%	-5	1.4	-0.7	-2.1	u	-1
CC(=O)Nc1cc(C)nn1-c1nc2ccccc2s1	-19%	11	0.7	3.5	-0.6	21	-2
CC(=O)c1ccc(N2CCN(S(=O)(=O)c3ccc(-c4cnc(C5CC5)o4)cc3)CC2)cc1	-12%	32	7.5	6.4	-2.3	7	2
COc1ccc(C(=O)N/C(=C\c2cn(C)c3ccccc23)C(=O)N2CCN(C)CC2)cc1OC	x	2	0.0	0.4	-0.3	-3	40
COc1ccc(N2CCN(C(=O)CSc3ccc([N+](=O)[O-])cc3)CC2)cc1	8%	5	0.8	-1.0	0.0	-18	-1
O=C(CN1CCN(c2ncc(C(F)(F)F)cc2Cl)CC1)NC(=O)NCc1ccccc1	u	3	2.3	2.7	4.7	0	3
Cc1ccnc(NS(=O)(=O)c2ccc(NC(=O)Cc3c(F)cccc3Cl)cc2)n1	x	-7	0.5	48*	2.8	-8	-21
COc1cc(/C=C/C(=O)OC(C)C(=O)Nc2c(C)n(C)n(-c3ccccc3)c2=O)ccc1OCC#N (centres undefined)	27%	-9	-0.5	0.8	11	29	0
Cc1ccc(S(=O)(=O)N2CCOC23CCN(C(=O)c2ccc(Cl)cc2Cl)CC3)cc1	x	-4	-2.2	-4.7	-1.1	-1	-1
COc1cnc(SC(C)C)[nH]c1=O	-5%	-4	6.6	-5.7	4.1	2	1

(listing goes on)
SMILES	Vif A3G	B2AR ag	LANA-H2B inh	HNF4A DNA FP	RanGTP-Imp inh	Calb FLC	ALR H2O2 inh
COc1ccc(C2CC(C(F)(F)F)n3nc(C(=O)NCc4cn(C)nc4C)c(Cl)c3N2)cc1 (centres undefined)	-1%&-6%	20	0.1	3.1	1.0	19	x
CC(=O)c1c(C)n(-c2ccccc2Br)c2ccc(O)cc12	8%	14	-3.0	-1.1	2.2	-2	49
CCSc1ncc(Cl)c(C(=O)Nc2ccc(S(N)(=O)=O)cc2)n1	-8%	-6	4.0	-1.7	2.9	-1	-4
CC(C)[C@H](NC(=O)C1CCN(S(=O)(=O)c2ccccc2)CC1)C(=O)NCc1ccc(F)cc1	-4%	-2	1.5	-3.2	-0.1	-2	-6
COc1ccc(/C=C2/SC(=S)N(CCCC(=O)Nc3cccc(O)c3)C2=O)cc1	4%	15	1.3	1.8	1.2	0	x
COc1ccccc1NC(=O)N(Cc1ccco1)Cc1cc2cc(C)cc(C)c2[nH]c1=O	5%	6	-1.7	-5.4	2.5	6	-11
Cc1nc(SCC(=O)NC(C)(C#N)C2CC2)c2c(-c3cccs3)csc2n1 (centres undefined)	-8%	-2	x	-0.4	5.1	47	x
C(=N/N1CCN(c2ccccc2)CC1)/c1cccs1	19%	-2	-1.2	-0.1	-2.4	-5	6
CSCCC(NC(=O)c1ccco1)C(=O)NC1CCCCCC1 (centres undefined)	-2%	10	-1.2	-2.8	1.9	-4	1
Cc1nn(Cc2ccc(Cl)cc2)c(=O)n1N(C)c1ncc(C(F)(F)F)cc1Cl	-1%	1	-2.7	4.7	3.7	10	-6
CCC(C)NC(=O)Cn1c(=O)n(CCCCCC(=O)Nc2ccccc2)c(=O)c2sccc21 (centres undefined)	x	-5	4.6	3.6	-0.3	3	-2
Cc1cc(C)c(NC(=O)CN2CCCCCC2)c(C)c1	-9%	-6	0.9	-1.3	-1.9	2	-5

(listing goes on)
SMILES	Vif A3G	B2AR ag	LANA-H2B inh	HNF4A DNA FP	RanGTP-Imp inh	Calb FLC	ALR H2O2 inh
Cc1cc(=O)n(C(C)c2ccccc2)n1C(C)c1ccccc1 (centres undefined)	0%	1	x	0.7	x	x	x
Cc1cccc(NC(=O)CSc2ccc(-c3ccccn3)nn2)c1C	-7%	-8	0.5	1.1	-0.7	-4	3
CCc1nc2ccc(C(=O)N3CCN(c4cc(C)ccc4C)CC3)cc2nc1CC	7%	1	-4.7	-0.2	0.3	16	-16
CC(=O)Nc1ccc(SCCN2CC[C@@H](C(C)(C)C)CCC2=O)cc1	x	-4	2.3	0.3	x	x	99*
CCSc1nnc(NC(=O)c2cccc(S(=O)(=O)N(C)c3ccccc3)c2)s1	-7%	14	8.1	2.3	u	-1	94*
Cc1ccc(-c2nc(NC(=O)CSc3nnc(C)s3)ns2)cc1	-23%	1	5.1	1.0	0.3	-3	47
CC(C(=O)N1CCN(C2c3ccccc3-c3ccccc32)CC1)N1C(=O)c2ccccc2C1=O (centres undefined)	x	-1	-2.2	0.6	1.9	-2	-3
COC1CCN(C(=O)c2ccc(OC3CCN(Cc4ccccn4)CC3)cc2)CC1	2%	1	-7.2	-0.4	u	-1	x
CC(=O)c1cccc(NC(=O)C(C)OC(=O)c2cc(=O)[nH]c3ccccc23)c1 (centres undefined)	-11%	-5	1.6	-1.8	-1.7	-10	-4
CCSc1ccccc1C(=O)N1CCN(c2ccc([N+](=O)[O-])cc2)CC1	x	-6	5.3	-1.6	-2.1	10	-7
CN1CCN(S(=O)(=O)c2cccc(C(=O)N3CCN(c4ccccc4F)CC3)c2)CC1	0%	-4	-0.5	-2.2	x	x	1
Cc1ccccc1-c1nc(CS(=O)CC(=O)NC(C)CCc2ccccc2)c(C)o1 (centres undefined)	x	1	-0.2	3.3	u	16	-14

Additional records:
SMILES	Vif A3G	B2AR ag	LANA-H2B inh	HNF4A DNA FP	RanGTP-Imp inh	Calb FLC	ALR H2O2 inh
C/C(CCC(=O)O)=N/Nc1ccc([N+](=O)[O-])cc1[N+](=O)[O-]	6%	9	-1.3	0.5	0.1	-18	-2
O=C(Cn1nnc(-c2ccccc2F)n1)NCCc1ccccc1	-2%	-2	3.9	1.5	0.3	3	-4
CN(C)c1ccc(NC(=O)c2ccc3nc[nH]c3c2)cc1	1%	2	-4.9	0.7	-1.8	-6	x
CN1CCN(c2ccccc2NC(=O)COc2ccc(Cl)cc2)CC1	x	-7	0.6	-1.4	-5.2	-1	-6
NS(=O)(=O)c1cccc(NC(=O)CSc2nc3ccccc3c(=O)n2Cc2ccco2)c1	0%	-3	-1.6	-0.3	x	x	x
COc1ccc2cc([C@H](C)C(=O)N(C)Cc3ccccc3N3CCCC3)ccc2c1	x	-3	4.6	10	2.9	22	-18
O=S(=O)(Nc1ccccn1)c1ccc(Oc2ccccc2)cc1	19%	-14	5.9	1.6	-0.4	5	0
O=C(c1ccc(Cl)c(S(=O)(=O)N2CCCCC2)c1)N1CCCCCC1	-14%	-4	2.3	-1.9	-0.2	-2	x
C=CCn1c(-c2ccc(S(=O)(=O)N3CCOCC3)cc2)csc1=Nc1ccccc1	-14%	10	-2.9	-3.4	3.9	-4	x
Cc1noc(NS(=O)(=O)c2ccc(NC(=O)c3ccc(N(C)C)cc3)cc2)c1C	x	-7	2.9	-1.2	x	x	56
OCCNCCCOc1cc(Cl)ccc1Cl	-7%	-5	-6.0	4.0	3.1	-9	x
Cc1ccc(S(=O)(=O)CCC(=O)Nc2sccc2C(N)=O)cc1	7%	4	4.6	11	x	x	18

Later entries:
SMILES	Vif A3G	B2AR ag	LANA-H2B inh	HNF4A DNA FP	RanGTP-Imp inh	Calb FLC	ALR H2O2 inh
Cc1cc(Cl)ccc1NC(=S)NCc1ccc(Cl)cc1	17%	0	2.3	-3.3	1.4	-23	-3
O=C(NCCN1CCOCC1)[C@H](Cc1ccccc1)N1C(=O)c2ccccc2C1=O	-2%	-8	-1.0	2.2	1.5	-7	5
Cc1noc(/C=C/N(C)C)c1S(=O)(=O)N1CCCC(C(=O)NCc2ccc(Cl)cc2)C1 (centres undefined)	0%	3	5.1	13	x	x	x
COc1cc(/C=C2\SC(=N)N(c3ccc(F)cc3)C2=O)ccc1O	3%	13	2.1	14	-1.3	3	-10
COc1ccc(NC(=O)CCSc2nc(C)cs2)cc1	x	5	-8.2	3.1	4.8	0	0
CC(=O)Nc1ccc(SCCN2CC[C@@H](O)CCC2=O)cc1	x	0	-0.2	0.1	x	x	15
CC(C)c1ccc(NC(=O)COC(=O)/C=C/c2cccc(Br)c2)cc1	8%	-7	1.1	3.4	-1.6	-14	-3
CC(C)(C)CNC(=O)[C@]1(C)CCC[C@@]2(C)C3CC[C@@]4(C)C[C@]3(CCC21)CC4=O (some centres undefined)	x	-1	14	1.0	x	x	-12
CCc1nc2ccccc2nc1N1CCN(S(=O)(=O)c2ccccc2)CC1	x	-6	6.4	0.6	1.6	-1	-4
O=C(N1CCCCC1)N1CCN(C(=O)N2CCCCC2)CC1	-6%	1	3.2	-0.5	-1.9	14	3
NS(=O)(=O)c1ccc(CNC(=O)c2cccnc2Cl)cc1	x	0	6.5	1.0	-0.3	-17	x
c1ccc(C2=Nc3cccc4cccc(c34)N2)cc1	x	1	-3.8	2.5	1.5	-4	x
O=C(COc1ccc(/C=N/NC(=O)c2ccncc2)cc1)Nc1cccc([N+](=O)[O-])c1	x	3	-0.2	4.4	1.3	-6	x
CCC1(C)N=C(N)Nc2nc3cc(C)c(C)cc3n21 (centres undefined)	2%	1	0.0	-2.1	3.3	x	99*
CCN(Cc1ccccc1)Cc1cccc([N+](=O)[O-])c1	1%	-7	1.5	-0.3	1.8	-2	3
